D2 potentiator = potentiates the human D2 dopamine receptor allosterically; P14416; DiscoveRx D2 beta-arrestin cells, luminescence, 90 min; 100% = 57 uM dopamine signal; potentiation, % (concentration not given with the values); hit rate 0.23% among 360,000; AID 624464; active = potentiation of 50% or more; inconclusive = 30% to 50%; inactive = 30% or less;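 note: compound concentration not given in the record; tested on top of an EC20 dose of dopamine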
Target sequence (P14416 whole entry, looked up): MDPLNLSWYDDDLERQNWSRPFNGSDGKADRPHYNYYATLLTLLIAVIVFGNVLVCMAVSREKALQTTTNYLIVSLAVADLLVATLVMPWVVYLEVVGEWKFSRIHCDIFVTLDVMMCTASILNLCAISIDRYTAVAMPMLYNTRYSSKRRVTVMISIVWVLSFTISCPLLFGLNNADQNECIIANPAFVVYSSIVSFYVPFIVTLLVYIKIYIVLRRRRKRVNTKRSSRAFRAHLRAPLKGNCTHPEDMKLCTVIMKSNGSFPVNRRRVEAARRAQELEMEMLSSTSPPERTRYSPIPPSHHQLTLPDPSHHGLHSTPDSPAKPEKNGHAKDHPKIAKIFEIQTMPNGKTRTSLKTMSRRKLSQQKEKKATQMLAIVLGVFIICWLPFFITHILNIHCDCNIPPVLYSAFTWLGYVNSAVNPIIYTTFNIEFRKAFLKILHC
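D2 cells co-treated with compound plus 50 nM dopamine (EC20) for 90 min at 37 deg C to detect potentiation. Beta-arrestin recruitment was read as enzyme-fragment luminescence after 1 h at ambient temperature. Full response was set by 57 uM dopamine.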
CtBP-E1A inh = CtBP/E1A binding inhibition; AlphaScreen GST-E1A/His-CtBP binding, 1536-well; active compounds read low; control for the full effect not named in the record; activity change, % (concentration not given with the values); hit rate 0.49% among 340,000; in the data active means activity change below about -65%; inconclusive means about -30% to -65%; inactive means above about -30%; note: % is set by controls: 0 for no effect and ±100 for the full control effect
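In 5 uL wells, 23 nL compound meets equimolar GST-E1A and His-CtBP (5X stock 125 nM each) for 2 h, 37 °C. Beads (5X, 50 ug/mL) then 1 h, 37 °C, dark.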
TRPML1 ag = activates the human TRPML1 channel. hit rate 0.12% among 410,000. activation, % (concentration not given with the values). TRPML1-expressing cells, Ca2+ dye fluorescence, FDSS; host cell line not named in the record; reference of the full effect not given here; in the data active = activation above about 50%; inconclusive = about 30% to 50%; inactive = below about 30%; note: 0% is about no effect; the text of the record puts the active cut at 80%
Target sequence (Q9GZU1 whole entry, looked up): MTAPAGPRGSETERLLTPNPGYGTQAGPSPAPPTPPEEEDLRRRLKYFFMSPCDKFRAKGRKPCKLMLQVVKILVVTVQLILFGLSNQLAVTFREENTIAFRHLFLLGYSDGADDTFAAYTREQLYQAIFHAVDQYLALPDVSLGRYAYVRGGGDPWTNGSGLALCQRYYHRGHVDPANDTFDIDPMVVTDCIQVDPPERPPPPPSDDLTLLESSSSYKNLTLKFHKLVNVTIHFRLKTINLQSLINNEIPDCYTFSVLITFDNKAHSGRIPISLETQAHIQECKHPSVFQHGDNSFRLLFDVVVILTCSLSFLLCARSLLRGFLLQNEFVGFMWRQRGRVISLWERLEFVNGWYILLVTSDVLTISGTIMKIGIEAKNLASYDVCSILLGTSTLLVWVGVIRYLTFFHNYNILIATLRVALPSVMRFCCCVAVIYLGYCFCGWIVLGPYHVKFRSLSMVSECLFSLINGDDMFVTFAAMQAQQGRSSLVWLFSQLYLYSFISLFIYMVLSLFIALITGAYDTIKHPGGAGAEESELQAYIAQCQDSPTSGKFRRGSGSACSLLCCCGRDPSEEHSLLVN
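In this qHTS format, compounds were pin-transferred onto Ca8-dye-loaded TRPML1-DL cells induced with Tet overnight, and intracellular Ca2+ fluorescence was recorded kinetically for 110 s after a 10 s baseline. A subsequent 4uM final 54-4 (EC80) addition followed by a second 110 s read served as the antagonist phase.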
TRPV1 PAM = enhances activation of the human vanilloid receptor TRPV1; potentiation, % at 8.33 µM; hit rate 0.02% among 320,000; AID 540277; TRPV1-expressing cells, Fluo-8 calcium influx, capsaicin EC20 potentiation; host cell line not named in the record; control for the full effect not named in the record; Q8NER1; active means potentiation above 80%; inconclusive means 30% to 80%; inactive means below 30%; note: 0% is about no effect
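TRPV1-expressing cells were cultured overnight at 35.5C and loaded with Fluo-8 calcium dye for 40 to 90 min at room temperature. After a 10 s baseline, compound was added and calcium influx was read kinetically for 3 min (ex 480/em 520 nm).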
Six1-Eya2 blk = Six1/Eya2 interaction inhibition; Q15475+O00167; AlphaScreen GST-Six1/His-Eya2 binding, biochemical; active compounds read low; control for the full effect not named in the record; activity change, % (concentration not given with the values); hit rate 0.56% among 360,000; AID 651725; in the data active = activity change below about -65%; inconclusive = about -30% to -65%; inactive = above about -30%; note: % is set by controls: 0 for no effect and ±100 for the full control effect
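Homogeneous AlphaScreen proximity assay pairing GST-Six1 with His-tagged Eya2 (added as 5X mix: 250 nM and 500 nM) in 50 mM Tris pH 8.0, 300 mM NaCl, 1 mM TCEP. Glutathione donor and nickel acceptor beads; 1 h, 37 °C, dark.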
TRPML1 inh = human mucolipin-1 channel inhibition | Q9GZU1 | activity change, negative = inhibition, % (concentration not given with the values) | TRPML1-inducible cells, Ca2+ dye fluorescence, FDSS; active compounds read low; inhibition of EC80 agonist-evoked calcium signal | AID 624415 | hit rate 0.02% among 390,000; in the data active means activity change below about -50%; inconclusive means about -30% to -50%; inactive means above about -30%;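 note: stimulus is agonist 54-4 at its EC80 concentration; % is set by controls: 0 for no effect and ±100 for the full control effect; the text of the record puts the active cut at -80%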
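Calcium fluorescence in TRPML1-DL cells induced overnight with Tet: a 110 s read after compound pin addition, then a 110 s antagonist read after challenge with 54-4 at 4 uM final (EC80).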
* marks the source's active call; other numbers are inactive results; ? = inconclusive; . = not tested or not shown; & = joins results of further samples.

SMILES	D2 potentiator	CtBP-E1A inh	TRPML1 ag	TRPV1 PAM	Six1-Eya2 blk	TRPML1 inh
CC(C)Oc1cccc(C(=O)C2CCCN(C(=O)c3ccoc3)C2)c1 (stereo not given)	-1	6	-0.9	-4	-7	2
Oc1ccc(C[C@@H]2CNCCN2CCc2cc(C(F)(F)F)cc(C(F)(F)F)c2)cc1	-13	.	0.1	9	4	4
CC1CC(OCC(O)CN2CCOCC2)CC(C)(C)C1 (stereo not given)	1	-4	0.9	-3	11	2
CC(=O)c1ccc(N2CCN(C(=O)Cc3cccs3)CC2)cc1	1	7	-0.6	-9	0	-2
Cc1ccccc1NC(=O)c1nn(C)c(C(=O)Nc2ccccc2C)c1[N+](=O)[O-]	-7	-14	-0.3	-4	-3	9
COc1ccccc1/C=C/C=N/NC(=O)c1cc(-c2ccc(C)o2)[nH]n1	0	-15	4.1	-4	-10	21
O=C(Nc1cccc(Cl)c1N1CCOCC1)c1ccc2c(c1)OCCO2	-11	.	1.1	-10	-1	9
CC(C)NC(=O)Nc1ccc2c(c1)C(=O)N([C@H](C)CO)C[C@H](C)[C@@H](CN(C)S(=O)(=O)c1ccc(F)cc1)O2	1	0	-0.4	.	1	12
O=C(Nc1cccc(NC(=O)N2CCN(c3ccccc3)CC2)c1)N1CCN(c2ccccc2)CC1	-6	-2	-0.2	-9	-19	-7
COc1ccc(S(=O)(=O)N2CCCCCC2)cc1NC(=O)CCNC(=O)c1ccccc1Cl	-9	5	-0.6	.	-5	-14
C#CC(CO)N(CCN(Cc1ccccc1)C(C#C)CO)Cc1ccccc1 (stereo not given)	-7	5	-0.3	-3	1	3
Cc1ccc(C(=O)Nc2cccc(C(F)(F)F)c2)cc1Nc1ccccn1	-24	2	2.2	-28	1	13
COC(=O)Cc1csc(Nc2c(C)n(C)n(-c3ccccc3)c2=O)n1	-6	0	0.0	9	0	-1
COc1ccc(Cc2nnc(SCC(=O)NCC3CCCO3)o2)cc1 (stereo not given)	12	-7	-0.2	14	-3	3
O=C(NNC(=S)Nc1ccc(F)cc1)c1ccccc1OC(F)F	-24	-5	0.0	-1	-1	13
CC(=O)NCCc1nc(-c2ccc(Cl)cc2)no1	3	7	-0.2	.	2	-7
COC(=O)c1ccc(N=Cc2c(C(F)(F)F)[nH]n(C)c2=O)cc1	-2	.	0.1	-5	5	0
Cc1cccc(NC(=O)c2nc[nH]c2C(=O)Nc2cc(Br)ccc2F)c1	-2	4	-0.3	.	4	-15
O=C(NC1CCCCC1)N1CCN(C(=O)c2ccco2)CC1	-7	9	0.2	-7	3	-4
Clc1ccc(-c2nnc3cccc(Cl)n23)c(Cl)c1	3	0	-1.3	5	10	6
c1cn(CCCNc2ncnc3sc4c(c23)CCC4)cn1	-9	-3	-0.1	-1	-16	25
Cc1ccc(NC2=CC(=O)CC(C)(C)C2)cc1C	-16	3	-0.5	-13	4	-3
CC(=O)c1ccc(N=Cc2c(O)n(-c3cc(Cl)ccc3N3CCOCC3)c(=O)c3ccccc23)cc1	?	-10	0.6	-4	-7	2
C/C(=N\NC(=O)C1COc2ccccc2O1)c1cccs1 (stereo not given)	-18	5	0.1	-3	1	23
Cc1ccc(NC(=O)CSCC(=O)Nc2ccc(S(=O)(=O)N3CCCC3)cc2)cc1	-16	0	-0.7	-6	0	-6
CS(=O)(=O)N(CC(=O)Nc1ccc(S(=O)(=O)N2CCOCC2)cc1)c1ccccc1Cl	2	5	1.2	-4	0	-1
CCOC1=C2[C@H](c3ccccc3)N(S(=O)(=O)c3ccc(C)cc3)C(C(C)(C)C)[C@H]2C(C#N)(C#N)C(C#N)(C#N)C1 (stereo not given in full)	2	5	0.2	.	-15	3
COc1ccc(NC(=O)C2(C)Cc3c(-c4ccc(NC(C)=O)cc4)ccnc3O2)cc1OC (stereo not given)	4	-17	-0.7	.	-13	.
COc1ccc(NC(=O)c2cc(-c3cc(Cl)ccc3C)n[nH]2)cc1OC	-9	-4	-0.6	.	-11	.
COCC(C)n1c(C)cc(C(=O)CSc2nnc(N)s2)c1C (stereo not given)	-5	-3	-0.3	3	0	-11
O=C(NCCn1c(C(F)(F)F)nc2ccccc21)[C@H]1CCCN1c1nc(CN2CCCCC2)cs1	-6	2	-0.8	11	-3	-27
O=C(CCc1ccccc1)Nc1ccccc1F	-8	3	-1.2	-11	-9	34
CCOc1cc(C(=O)O)cc(Cl)c1OC	1	-9	-0.4	1	10	2
CN(c1ccc(C(=O)N2CCN(Cc3ccccc3)CC2)cc1)S(=O)(=O)c1ccc(Cl)cc1	-16	-13	4.5	-13	-14	56
OC(COCC(F)(F)C(F)(F)C(F)(F)C(F)F)Cn1c2ccccc2c2ccccc21 (stereo not given)	-9	7	0.8	-2	10	29
COCCCNC(=O)c1csc([C@H]2C[C@H](O)[C@@H](CO)O2)n1	14	-8	0.1	.	12	.
CCOc1ccc(Nc2oc(-c3cccs3)nc2C#N)cc1	?	-14	1.2	19	-7	-19
O=C1C2C3C=CC(C3)C2C(=O)N1CCc1ccccc1 (stereo not given)	4	6	0.6	8	9	-7
Cc1cn([C@@H](CCCCN)C(=O)NCCCCCCCCCCC(=O)N2CCNCC2)nn1	-5	5	-0.5	6	0	7
Cc1ccc(C(=O)NC(=S)/C=C2\N(C)c3ccccc3C2(C)C)cc1	-11	-81*	1.9	-10	-75*	43
COc1ccc(-c2nc3ccccc3[nH]2)cc1	-5	14	-0.3	-6	2	-3
COc1ccc(Cl)cc1S(=O)(=O)N(C)CC(=O)NCc1ccc2c(c1)OCO2	-5	-1	0.0	19	0	-24
Brc1ccc(OCCCN2CCOCC2)cc1	-11	6	-1.1	10	5	5
Cc1cc(NC(=O)CSc2n[nH]c(N)n2)no1	-2	3	0.2	0	2	2
Cc1ccc(OCc2ccc(C(=O)O)o2)c([N+](=O)[O-])c1	-14	14	-0.2	14	8	3

7 entries drawn at random from those above:
SMILES	D2 potentiator	CtBP-E1A inh	TRPML1 ag	TRPV1 PAM	Six1-Eya2 blk	TRPML1 inh
CN(c1ccc(C(=O)N2CCN(Cc3ccccc3)CC2)cc1)S(=O)(=O)c1ccc(Cl)cc1	-16	-13	4.5	-13	-14	56
CCOc1cc(C(=O)O)cc(Cl)c1OC	1	-9	-0.4	1	10	2
Cc1ccc(OCc2ccc(C(=O)O)o2)c([N+](=O)[O-])c1	-14	14	-0.2	14	8	3
CCOc1ccc(Nc2oc(-c3cccs3)nc2C#N)cc1	?	-14	1.2	19	-7	-19
O=C(NCCn1c(C(F)(F)F)nc2ccccc21)[C@H]1CCCN1c1nc(CN2CCCCC2)cs1	-6	2	-0.8	11	-3	-27
O=C1C2C3C=CC(C3)C2C(=O)N1CCc1ccccc1 (stereo not given)	4	6	0.6	8	9	-7
Cc1ccc(C(=O)NC(=S)/C=C2\N(C)c3ccccc3C2(C)C)cc1	-11	-81*	1.9	-10	-75*	43

Continuation:
SMILES	D2 potentiator	CtBP-E1A inh	TRPML1 ag	TRPV1 PAM	Six1-Eya2 blk	TRPML1 inh
COc1cccc(OC)c1NC(=O)CN1CCN(C)CC1	-6	9	0.4	-5	6	16
COC(=O)C1=C(C)N(CCCC(=O)O)C(=O)NC1c1cccc2ccccc12 (stereo not given)	-9	4	-0.8	.	-2	11
CC(=O)c1cccc(NC(=O)NC2CCCc3ccccc32)c1 (stereo not given)	-14	-18	0.7	4	0	-3
NS(=O)(=O)c1cccc(NC(=O)/C=C/c2cccs2)c1	-5	-7	-0.1	-7	-10	-15
O=C(NC1CC1)c1cccc(Oc2ccccc2)c1	0	-10	0.7	-15	1	-7
CCC(c1nnnn1Cc1ccco1)N(Cc1cc2cc(OC)ccc2[nH]c1=O)C1CCCCC1 (stereo not given)	3	-9	1.1	-6	-11	-16
CC(C)CCNC(=O)C1CC(=O)N(C2CCCC2)C1 (stereo not given)	-3	2	0.6	6	3	3
COc1ccc2oc(C(=O)N(C)Cc3ccc(OC(F)F)cc3)c(C)c2c1	-9	-2	3.0	1	9	-9
N#Cc1cc(Cl)c(N2CCOCC2)cc1C#N	1	5	4.3	-7	-2	1
CC1CCC(NC(=O)CNC(=O)c2ccc3ccccc3c2)CC1 (stereo not given)	-17	6	-0.1	-4	4	-4
Cc1cccc(N2C(=O)C(O)=C(C(=O)c3cccs3)C2c2ccc(C(C)C)cc2)n1 (stereo not given)	-14	-8	10	5	-17	-6
CCCNC(=S)N1CCN(C(c2ccccc2)c2ccccc2)CC1	-16	-13	1.2	-5	-12	-4
O=c1[nH]c2ccc(S(=O)(=O)NCc3ccccc3)cc2[nH]1	-3	1	1.6	-6	-5	16
Cc1nc(Nc2ccc(S(N)(=O)=O)cc2)sc1C(=O)Nc1ccccc1	-2	-5	-0.8	2	-7	3
CCOc1ccc2nc(N3CCC(C(=O)Nc4nnc(CC)s4)CC3)sc2c1	-7	-1	-0.6	-27	-3	5
COc1cc2nc(Nc3ccc(F)cc3)nc(N)c2cc1OC	-4	-26	2.2&0.2	17	-13	15&-5
COCC1CCN(C(=O)c2ccc3oc(CCCc4ccccc4)nc3c2)C1 (stereo not given)	14	-4	0.3	2	-1	-10
CCC(C(=O)c1ccc2ncccc2c1)c1ccccc1 (stereo not given)	-3	.	2.6	-25	-2	24
O=C(NCCc1ccccn1)c1n[nH]c(=O)c2ccccc12	4	3	-1.0	29	1	-4
Clc1cccc(-c2nnc(-c3ccno3)o2)c1	-5	.	0.3	2	-1	10
O=C(CC1C(=O)NCCN1Cc1c(F)cccc1Cl)NCCc1ccccn1 (stereo not given)	3	.	-1.1	-13	-1	24
CC(C)NC(=O)CN(Cc1ccc(F)cc1)C(=O)CCC(=O)Nc1nccs1	-4	5	-0.1	13	-6	10
C=CCN1C(=O)C(CC(=O)Nc2ccc(OC)cc2)N(Cc2ccco2)C1=S (stereo not given)	-15	2	1.4	-6	-1	2
COC(=O)C1CSC(C(=O)OC)N1C(=O)Nc1ccccc1 (stereo not given)	-1	9	0.4	1	4	-5
O=C(O)CC(CNS(=O)(=O)c1ccccc1)c1ccccc1 (stereo not given)	-5	0	-0.7	-4	19	-15
COC(=O)c1c(N2C(=O)CCC2=O)sc2c1CCCC2	-1	-1	2.0	-11	8	4
O=C(c1cnccn1)N(Cc1cccs1)C1(C(=O)NC2CCCC2)CCCCC1	-4	-1	0.8	6	7	5
COc1ccc(CN2C(=O)c3cccnc3C2=O)cc1S(=O)(=O)NC1CCCCC1	-4	.	1.6	-7	-21	8
COc1ccc(NC(=O)c2cc(=O)[nH]c3ccccc23)cc1	-1	2	-0.3	13	0	-17
CC(C)CNC(=O)CSc1ccc(S(=O)(=O)N(C)C2CCCCC2)cn1	6	2	-0.5	-14	-4	-23
COc1ccc(C(=O)NCCC(=O)NCc2cc(=O)n(C)c(=O)n2C)cc1	-3	5	-0.5	19	0	-12
Cc1nc2sc(C(c3ccco3)N3CCN(c4ccc(F)cc4)CC3)c(O)n2n1 (stereo not given)	-5	-13	-0.4	27	-17	5
O=C1c2ccccc2C(=O)N1c1ccccc1S(=O)C(F)(F)F (stereo not given)	-10	0	-0.1	0	16	7

Entries of single compounds, looked up by structure. Screens in order: D2 potentiator	CtBP-E1A inh	TRPML1 ag	TRPV1 PAM	Six1-Eya2 blk	TRPML1 inh
Entry for COC(=O)c1c(N2C(=O)CCC2=O)sc2c1CCCC2 → -1	-1	2.0	-11	8	4
Entry for CC(C)CNC(=O)CSc1ccc(S(=O)(=O)N(C)C2CCCCC2)cn1 → 6	2	-0.5	-14	-4	-23
